Bioassay records (PubChem BioAssay)
E coli growth – E. coli growth inhibition, primary screen, OD600 | AID 1053175, 2014 | OD600 absorbance (concentration not given with the values) | actives 0.21% (n = 330,000) | Escherichia coli growth, 23 h; hits give low values;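 active = OD600 absorbance below the run mean of sample wells minus 3.6 SD, in any replicate, cut at about 0.56 in these data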;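 also: stock transfer was 300 nL into about 60 µL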
HNF4A DNA FP – change in binding of human HNF4A to DNA, primary screen, biochemical, fluorescence polarization, FITC-DNA; Hepatocyte nuclear factor 4-alpha (Homo sapiens), P41235; 1 h; activity change, % at 10 µM; actives 0.3% (n = 360,000); in the data active = activity change above about 30%, passing the limit was not always enough;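 also: controls were the assay level and a saturating level of protein; the project sought stronger binding though the title names inhibitors; some compounds called inactive have numbers as strong as hits; positive values seem to mean higher polarization but the record does not say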
Target sequence (P41235 whole entry, looked up): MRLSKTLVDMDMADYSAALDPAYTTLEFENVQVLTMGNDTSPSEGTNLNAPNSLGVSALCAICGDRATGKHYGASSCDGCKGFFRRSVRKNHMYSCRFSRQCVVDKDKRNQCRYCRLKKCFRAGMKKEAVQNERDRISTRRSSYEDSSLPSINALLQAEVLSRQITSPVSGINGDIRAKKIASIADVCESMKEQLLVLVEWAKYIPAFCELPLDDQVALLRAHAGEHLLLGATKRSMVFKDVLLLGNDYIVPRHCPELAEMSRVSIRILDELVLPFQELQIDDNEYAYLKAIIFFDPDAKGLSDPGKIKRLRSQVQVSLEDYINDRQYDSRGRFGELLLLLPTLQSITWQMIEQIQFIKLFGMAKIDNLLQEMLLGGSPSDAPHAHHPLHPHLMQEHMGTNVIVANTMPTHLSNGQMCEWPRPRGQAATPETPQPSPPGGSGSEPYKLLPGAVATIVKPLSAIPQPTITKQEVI
Vif TR-FRET – inhibitors of Vif binding to APOBEC3G peptide, primary screen, biochemical, TR-FRET, GST-Vif 1-94, biotin-A3G peptide, dose response retest (AID 1117319); Virion infectivity factor (Human immunodeficiency virus type 1 group M subtype B (isolate …; TR-FRET GST-Vif / biotin-A3G peptide binding; higher % means a stronger effect; test concentration not given here; strong numbers were not always called active; inhibition, %; hits with a dose series show IC50 in µM; actives 0.57% (n = 260,000);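 active = above the screen mean plus three standard deviations and confirmed in dose response; inconclusive = results disagree or hit not tested in dose response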;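 also: Vif residues 1-94 fused to GST binding biotinylated APOBEC3G peptide 110-148; 0% = full assay without inhibitor and 100% = GST in place of GST-Vif; retest series ran down from 100 µM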
MLL AF4-AF9 inh – inhibitors of AF4 peptide binding to AF9, primary screen, biochemical, AlphaScreen, biotin-AF4 peptide, FLAG-AF9, single point; inhibition, % at 10 µM; Protein AF-9 (Homo sapiens), P42568; actives 0.47% (n = 350,000);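 active = every replicate reaching a set inhibition limit, whatever the replicate mean, cut at about 25% in these data; inconclusive = mean inhibition reaches that limit but some replicates miss it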;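 also: 0% = plate neutral control median and 100% = total signal loss; the record names both 10 and 1 µM as test concentration; the first replicate is given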
Target sequence (P42568 whole entry, looked up): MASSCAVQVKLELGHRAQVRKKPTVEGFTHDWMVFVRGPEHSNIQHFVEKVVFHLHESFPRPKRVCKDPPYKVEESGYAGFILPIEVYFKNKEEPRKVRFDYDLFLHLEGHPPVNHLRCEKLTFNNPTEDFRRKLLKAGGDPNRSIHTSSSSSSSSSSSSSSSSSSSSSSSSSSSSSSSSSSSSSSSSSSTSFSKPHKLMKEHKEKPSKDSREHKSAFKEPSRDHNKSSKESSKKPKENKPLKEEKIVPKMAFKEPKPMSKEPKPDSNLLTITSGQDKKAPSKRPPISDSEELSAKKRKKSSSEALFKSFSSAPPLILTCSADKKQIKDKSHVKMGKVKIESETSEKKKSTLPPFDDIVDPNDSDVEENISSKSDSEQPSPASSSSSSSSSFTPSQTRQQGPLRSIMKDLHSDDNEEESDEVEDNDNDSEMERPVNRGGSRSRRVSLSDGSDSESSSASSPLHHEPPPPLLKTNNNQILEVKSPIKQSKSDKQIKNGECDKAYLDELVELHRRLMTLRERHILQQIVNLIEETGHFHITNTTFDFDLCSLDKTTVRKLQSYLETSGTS
FGF22 binding – binders of human FGF22 protein, primary screen, FGF22 synaptogenesis inhibitor project, biophysical, thermal shift, single point | Fibroblast growth factor 22 (Homo sapiens), Q9HCT0 | recombinant FGF22 thermal shift, SYPRO orange fluorescence; percent of sucrose octasulfate shift, DMSO zero | calls only at 9.99 µM | actives 1.5% (n = 340,000) | AID 651658, 2012;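 active = melting point raised past a set limit in the mean and every replicate; inconclusive = no clear call; three in four hits are not shown here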
RanGTP-Imp inh – inhibitors of RanGTP-importin-beta interaction, primary screen, biochemical, FRET, CFP-Ran, YFP-importin-beta, homogeneous | cell-free CFP-Ran/YFP-importin-beta FRET ratio | inhibition, % (test concentration not listed) | actives 1.1% (n = 300,000) | Ran GTPase (GTP-bound) - importin-beta complex | AID 2216, 2009;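 active = most replicates above 15%; inconclusive = exactly half above 15%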;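 also: 0% = DMSO wells and 100% = Ran loaded with GDP instead of GTP; wells of about 40 µL received 100 nL stock; the first replicate is given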
UCH37 DUB inh – inhibitors of human UCH37 deubiquitinase, primary screen, biochemical, Ub-AMC cleavage, fluorescence. inhibition, % (no concentration beside the values). Ubiquitin carboxyl-terminal hydrolase isozyme L5 (Homo sapiens), Q9Y5K5. purified proteasome/UCH37. AID 588478, 2011. actives 0.33% (n = 330,000);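 active = mean of two replicates above 20%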;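 also: 0% = compound-free wells with enzyme and 100% = wells lacking proteasome; stock transfer was 100 nL into about 20 µL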
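Material: human UCH37 enzyme supplied as purified proteasome complex / Amount: 0.15 nM proteasome as dispensed / Buffer or medium: pH 7.4 Tris-HCl (50 mM) with ovalbumin, ATP-MgCl2, DTT / Times: preincubation 30 min, reaction 25 min, room temperature / Technique: AMC fluorescence from Ub-AMC cleavage, excitation 355 nm, emission 460 nm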
Starred values were filed as active, the others as inactive.

Screening CCC(=O)Oc1ccc2c(C)cc(=O)oc2c1C(=O)c1ccccc1 returned E coli growth 0.694, HNF4A DNA FP 1.7, Vif TR-FRET -7.2%, MLL AF4-AF9 inh -1.8, FGF22 binding inactive, RanGTP-Imp inh -1.7 and UCH37 DUB inh -5.6.
For CC(C)C(=O)Nc1ccc(C(=O)NNC(=S)NC(=O)c2cccs2)cc1 the results were E coli growth 0.617, HNF4A DNA FP -1.6, Vif TR-FRET 20.4%, MLL AF4-AF9 inh 2.1, RanGTP-Imp inh -1.6 and UCH37 DUB inh 5.4.
CSc1ncccc1C(=O)OCC(=O)Nc1nc(C)c(Cl)cc1Cl was read as E coli growth 0.694, HNF4A DNA FP -0.4, Vif TR-FRET -41.4%, MLL AF4-AF9 inh -1.4, FGF22 binding inactive and UCH37 DUB inh -3.1.
Screening O=C(Nc1ccc(N2CCN(C(=O)c3cccs3)CC2)c(Cl)c1)c1cccnc1 returned E coli growth 0.703, HNF4A DNA FP -1.7, Vif TR-FRET 11.8%, MLL AF4-AF9 inh -21.7, FGF22 binding inactive, RanGTP-Imp inh 0.7 and UCH37 DUB inh 4.0.
O=C(O)CCC1(CCC(=O)O)c2ccccc2-c2ccccc21 was read as E coli growth 0.699, HNF4A DNA FP 0.3, MLL AF4-AF9 inh -4.3, FGF22 binding inactive, RanGTP-Imp inh -1.3 and UCH37 DUB inh 3.1.
For CC(C)C(O)C1CCN(Cc2nc(-c3cccs3)no2)CC1 (stereo not drawn) the results were E coli growth 0.68, HNF4A DNA FP -3.3, Vif TR-FRET -4.1%, MLL AF4-AF9 inh -0.8, FGF22 binding inactive, RanGTP-Imp inh inconclusive and UCH37 DUB inh 1.7.
Screening O=S(=O)(O)c1cc(O)c2ccc(Nc3ccccc3)cc2c1 returned E coli growth 0.708, HNF4A DNA FP -69.1, Vif TR-FRET 1.38µM*, MLL AF4-AF9 inh 5.7, FGF22 binding inactive and UCH37 DUB inh -31.6.
COc1ccccc1Cc1c(-c2cccc(Cl)c2)nc2ccc(Br)cn12 was read as HNF4A DNA FP 34.6, MLL AF4-AF9 inh 0.5 and FGF22 binding inactive.
C[C@H](O)[C@@H]1C(=O)N2CCc3ccc(N4CCN(C)CC4)cc3[C@@H]2C[C@@H]1N(C)C(=O)c1ccco1 was read as HNF4A DNA FP -2.8, Vif TR-FRET 1.4%, MLL AF4-AF9 inh -2.5 and FGF22 binding inactive.
Screening O=C(Cn1nnc(-c2ccc(F)cc2)n1)Nc1cccc(S(=O)(=O)N2CCCC2)c1 returned E coli growth 0.665, HNF4A DNA FP 1.9, Vif TR-FRET -6.2%, MLL AF4-AF9 inh 0.2, FGF22 binding inactive and UCH37 DUB inh 2.0.
Screening O=C(c1ccccc1)c1nnc(-c2ccncc2)o1 returned E coli growth 0.703, HNF4A DNA FP 1.6, Vif TR-FRET 3.6%, RanGTP-Imp inh 4.3 and UCH37 DUB inh -2.1.
Cc1cccc(-c2noc(C(C)NC(=O)c3ccco3)n2)c1 (stereo not drawn) was read as E coli growth 0.616, HNF4A DNA FP -2.2, MLL AF4-AF9 inh -2.0, FGF22 binding inactive, RanGTP-Imp inh 2.5 and UCH37 DUB inh 1.9.
`Cc1ccnc(NS(=O)(=O)c2ccc(NC(=O)C3CCCNC3=O)cc2)n1` (stereo not drawn) gave E coli growth 0.692, HNF4A DNA FP 0.7, Vif TR-FRET -5.9%, RanGTP-Imp inh 1.7 and UCH37 DUB inh 0.8.
`Cc1ccccc1S(=O)(=O)NCc1cccnc1` gave E coli growth 0.645, HNF4A DNA FP -0.4, Vif TR-FRET -1.1% and UCH37 DUB inh 0.5.
For CC(C1CC2CCC1C2)n1c(COc2ccccc2F)nnc1SCC(N)=O (stereo not drawn) the results were E coli growth 0.741, HNF4A DNA FP 1.4, Vif TR-FRET 5.1%, RanGTP-Imp inh 2.7 and UCH37 DUB inh 2.9.
Screening COc1c(C)cc(C(=O)C2CCCN(C(=O)c3cc(C)on3)C2)cc1C (stereo not drawn) returned E coli growth 0.678, HNF4A DNA FP -5.9, MLL AF4-AF9 inh 5.3, FGF22 binding inactive, RanGTP-Imp inh -5.4 and UCH37 DUB inh 4.0.
`Cc1c(Cl)cccc1NC(=S)NCc1ccc(Cl)cc1` gave E coli growth 0.75, HNF4A DNA FP -3.4, RanGTP-Imp inh 1.3 and UCH37 DUB inh -0.9.
Screening O=C1CN(C(=O)COC(=O)c2cnc(Cl)c(Cl)c2)c2ccccc2N1 returned E coli growth 0.648, HNF4A DNA FP -6.2, Vif TR-FRET -2.1%, MLL AF4-AF9 inh 0.9, FGF22 binding inactive, RanGTP-Imp inh -4.3 and UCH37 DUB inh 1.4.
Screening [O-]/C(=C(\C(=S)Nc1ccc(SC(F)F)cc1)[n+]1cccc(CO)c1)c1ccc(Cl)s1 returned E coli growth 0.668, HNF4A DNA FP 20.1, MLL AF4-AF9 inh 8.9, FGF22 binding inactive, RanGTP-Imp inh -2.7 and UCH37 DUB inh 7.0.
Screening CCOC(=O)C1=NOC2C3CC(C12)C1C(=O)N(CCc2ccc(OC)c(OC)c2)C(=O)C31 (stereo not drawn) returned E coli growth 0.697, HNF4A DNA FP 2.6, Vif TR-FRET 19.4%, MLL AF4-AF9 inh -1.8, FGF22 binding inactive, RanGTP-Imp inh 0.1 and UCH37 DUB inh 2.1.
`COC(=O)C1(Cc2ccc(O)c(CC3OC3(C)C)c2)OC(=O)C(O)=C1c1ccc(O)cc1` (stereo not drawn) gave E coli growth 0.783, HNF4A DNA FP 2.7, MLL AF4-AF9 inh 0.3, FGF22 binding inactive, RanGTP-Imp inh 5.8 and UCH37 DUB inh 6.9.
For O=C(CN1CCN(Cc2ccccc2)CC1)Nc1ccccc1-c1ccccc1 the results were E coli growth 0.71, HNF4A DNA FP -3.0, MLL AF4-AF9 inh 2.1, FGF22 binding inactive, RanGTP-Imp inh 0.7 and UCH37 DUB inh 2.9.
For O=C(CCc1ccccc1)NNC(=S)NCCc1ccccc1 the results were E coli growth 0.761, HNF4A DNA FP 2.2, Vif TR-FRET 70.3%, MLL AF4-AF9 inh -2.8, FGF22 binding inactive, RanGTP-Imp inh 1.2 and UCH37 DUB inh 2.0.
`CCc1ccc2[nH]c(=O)c(C(c3nnnn3Cc3ccccc3)N3CCOCC3)cc2c1` (stereo not drawn) gave E coli growth 0.69, HNF4A DNA FP 0.7, Vif TR-FRET 5.3%, RanGTP-Imp inh 0.6 and UCH37 DUB inh -15.2.
For C[C@H](NS(=O)(=O)c1ccc(F)cc1)C(=O)OCC(=O)c1c(N)n(C)c(=O)n(C)c1=O the results were E coli growth 0.641, HNF4A DNA FP -1.9, MLL AF4-AF9 inh -0.3, FGF22 binding inactive and UCH37 DUB inh -0.1.
Screening COc1cc(NC(=O)CNC(=O)Cn2c(C)cc3ccccc3c2=O)cc(OC)c1OC returned E coli growth 0.708, HNF4A DNA FP 3.7, Vif TR-FRET -3.0%, MLL AF4-AF9 inh 0.3, FGF22 binding inactive, RanGTP-Imp inh -2.5 and UCH37 DUB inh -2.1.
Cc1ccc(NC(=O)C(C)OC(=O)C2CC3CCCC(C2)C3=O)cc1S(=O)(=O)N1CCOCC1 (stereo not drawn) was read as E coli growth 0.653, HNF4A DNA FP 3.0, MLL AF4-AF9 inh -1.7, FGF22 binding inactive and UCH37 DUB inh -0.1.
For CC(C)c1ccc(NC(=S)NN2C(C)CCCC2C)cc1 (stereo not drawn) the results were E coli growth 0.632, HNF4A DNA FP 2.7, Vif TR-FRET 1.8%, MLL AF4-AF9 inh 2.7, FGF22 binding inactive, RanGTP-Imp inh 2.3 and UCH37 DUB inh 4.3.
`C(#CC1CCCCC1)c1ccc2c(c1)COc1c3ccccc3nn1-2` gave E coli growth 0.693, HNF4A DNA FP 4.9, Vif TR-FRET -8.1%, MLL AF4-AF9 inh -20.0, FGF22 binding inactive, RanGTP-Imp inh -5.1 and UCH37 DUB inh 2.9.
CC(C)C(C)(C#N)NC(=O)CSc1nnc(C(F)(F)F)n1C (stereo not drawn) was read as E coli growth 0.756, HNF4A DNA FP -2.6, Vif TR-FRET -3.2%, RanGTP-Imp inh 1.6 and UCH37 DUB inh 0.9.
Cc1cc2c(cc1S(=O)(=O)C(C)CC(=O)NCc1ccco1)OCC(=O)N2 (stereo not drawn) was read as E coli growth 0.667, HNF4A DNA FP 2.7, MLL AF4-AF9 inh -1.0, FGF22 binding inactive, RanGTP-Imp inh inconclusive and UCH37 DUB inh -0.4.
For CN1CCN(CCc2nc3cc(NC(=O)COc4ccccc4)ccc3n2C)CC1 the results were E coli growth 0.747, HNF4A DNA FP 2.1, Vif TR-FRET -0.1%, RanGTP-Imp inh 4.6 and UCH37 DUB inh 4.6.
O=C(NC1CCCCCC1)C1CCN(C(=O)c2cccc(Cl)c2)CC1 was read as E coli growth 0.676, HNF4A DNA FP 3.1, MLL AF4-AF9 inh 0.9, FGF22 binding inactive, RanGTP-Imp inh 0.8 and UCH37 DUB inh 3.1.
CN1CCN(c2nc(-c3ccncc3)nc3ccccc23)CC1 was read as E coli growth 0.673, HNF4A DNA FP 0.6, Vif TR-FRET -7.3%, RanGTP-Imp inh -0.2 and UCH37 DUB inh 4.0.
Screening CC12COC3(C(=O)Nc4ccc5ccccc5c4)CC1CCC32C (stereo not drawn) returned E coli growth 0.677, HNF4A DNA FP -0.6, MLL AF4-AF9 inh -10.7, FGF22 binding inactive, RanGTP-Imp inh -2.7 and UCH37 DUB inh -0.2.
Screening CC1(c2ccccc2)NC(=O)N(CC(=O)Nc2cc(Cl)ccc2N2CCOCC2)C1=O (stereo not drawn) returned E coli growth 0.684, HNF4A DNA FP 5.8, Vif TR-FRET -3.8%, MLL AF4-AF9 inh 7.8, FGF22 binding inactive, RanGTP-Imp inh 0.2 and UCH37 DUB inh 2.3.
For Cc1ccc(C)c(C(C)NC(=O)C2CC=CCC2C(=O)O)c1 (stereo not drawn) the results were HNF4A DNA FP -2.8, Vif TR-FRET -2.0%, MLL AF4-AF9 inh -0.8 and FGF22 binding inactive.
Screening O=C(COC(=O)CNC(=O)C1CCCCC1)NCc1ccc(Cl)cc1 returned E coli growth 0.638, HNF4A DNA FP 2.3, MLL AF4-AF9 inh 6.9, FGF22 binding inactive and UCH37 DUB inh 0.2.
COc1ccc(S(=O)(=O)NCc2ccccc2Cl)cc1OC was read as E coli growth 0.763, HNF4A DNA FP 1.6, Vif TR-FRET 30.6%, RanGTP-Imp inh -1.7 and UCH37 DUB inh 1.4.
`CCc1ccc(NC(=O)CSc2nnc(Cn3c(=O)sc4ccccc43)n2C)cc1` gave E coli growth 0.697, HNF4A DNA FP -2.1, Vif TR-FRET 14.6%, MLL AF4-AF9 inh -2.2, FGF22 binding inactive and UCH37 DUB inh -0.4.
For COC(=O)c1ccc(Cl)c(NC(=O)NC23CC4CC(CC(C4)C2)C3)c1 the results were E coli growth 0.74, HNF4A DNA FP -2.8, Vif TR-FRET 27.5%, RanGTP-Imp inh -0.4 and UCH37 DUB inh 2.4.
`Cc1ccc(NC(=O)C2CC2c2ccccc2)c([N+](=O)[O-])c1` (stereo not drawn) gave HNF4A DNA FP 2.4, MLL AF4-AF9 inh 2.2, FGF22 binding inactive and RanGTP-Imp inh -4.1.

An excerpt; rates above refer to the full screens.
